TRPV1 PAM = human TRPV1 potentiation. AID 540277. Q8NER1. potentiation, % at 8.33 µM. TRPV1-expressing cells, Fluo-8 calcium influx, capsaicin EC20 potentiation; host cell line not named in the record; control for the full effect not named in the record. 0.02% of 320,000 active; active means potentiation above 80%; inconclusive means 30% to 80%; inactive means below 30%; also: 0% is about no effect
Target sequence (Q8NER1 whole entry, looked up): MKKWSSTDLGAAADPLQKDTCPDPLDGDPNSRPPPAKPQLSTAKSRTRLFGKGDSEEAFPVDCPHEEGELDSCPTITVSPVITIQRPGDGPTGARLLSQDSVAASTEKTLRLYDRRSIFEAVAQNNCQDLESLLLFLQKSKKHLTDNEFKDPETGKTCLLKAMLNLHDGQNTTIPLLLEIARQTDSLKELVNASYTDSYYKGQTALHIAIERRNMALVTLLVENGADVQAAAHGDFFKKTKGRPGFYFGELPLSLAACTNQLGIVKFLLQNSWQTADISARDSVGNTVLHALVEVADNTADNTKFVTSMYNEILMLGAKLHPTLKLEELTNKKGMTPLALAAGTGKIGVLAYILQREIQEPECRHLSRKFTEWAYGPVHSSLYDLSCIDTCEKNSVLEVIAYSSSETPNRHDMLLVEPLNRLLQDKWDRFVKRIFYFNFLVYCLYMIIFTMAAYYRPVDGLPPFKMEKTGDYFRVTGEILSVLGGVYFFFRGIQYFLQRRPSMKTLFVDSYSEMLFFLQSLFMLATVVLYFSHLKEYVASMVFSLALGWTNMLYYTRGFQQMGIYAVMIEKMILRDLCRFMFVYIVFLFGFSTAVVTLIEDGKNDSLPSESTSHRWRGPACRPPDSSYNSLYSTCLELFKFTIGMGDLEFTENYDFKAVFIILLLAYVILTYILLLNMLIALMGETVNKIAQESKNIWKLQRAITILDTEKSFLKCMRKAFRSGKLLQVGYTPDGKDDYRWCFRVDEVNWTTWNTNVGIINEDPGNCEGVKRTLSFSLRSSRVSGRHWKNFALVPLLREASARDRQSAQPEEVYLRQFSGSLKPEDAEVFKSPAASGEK
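TRPV1-expressing cells were cultured overnight at 35.5C and loaded with Fluo-8 calcium dye for 40 to 90 min at room temperature. After a 10 s baseline, compound was added and calcium influx was read kinetically for 3 min (ex 480/em 520 nm).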
gsp ag = gsp mutant agonism. gsp mutant cells, cAMP HTRF, 30 min; control for the full effect not named in the record. Potency, µM (series often up to 76.9 µM), without a hit: at the highest dose activation (cAMP increase), hits mostly activators. AID 624287. 0.13% of 340,000 active; active = well fitted activation curve with a large enough effect; inconclusive = small, poorly fitted or top-dose-only effect, or another doubt; inactive = no such curve, though single readings can be large or run the other way; cell line not stated here;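 also: phosphodiesterase inhibitor Ro 20-1724 added with compounds to block cAMP breakdown; potency is read from the fitted curve at half-maximal effect; nearly all actives have a fitted effect of over 60% in size; about a fifth of the inactives were tested at one dose only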
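Cells stably selected in G418 were plated at 2000/well, grown 16-24 hr, then given compounds in DMSO with the PDE inhibitor […] (300 uM solution added) for 30 min at 37C; cAMP was read by HTRF.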
gsp antagonist = antagonists of gsp mutant (McCune-Albright syndrome). gsp-mutant cells, cAMP HTRF, 30 min; control for the full effect not named in the record. Potency, µM (highest dose often 76.9 µM), inactives show top-dose activity change, negative = inhibition, actives largely listed as inhibitors. 0.4% of 340,000 active; active = falling curve of any shape with a large fitted effect; inconclusive = falling curve, mostly with a smaller effect; inactive = flat or rising curve; cell line not stated here;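 also: intracellular cAMP measured with PDE inhibitor Ro 20-1724 present during compound exposure; potency is read from the fitted curve at half-maximal effect; % is scaled to controls: 0 for no effect and ±100 for the full control effect; nearly all actives have a fitted effect of over 65% in size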
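G418-selected cells were plated in DMEM/10% FBS for 16-24 h at 37C, then treated with compounds plus the PDE inhibitor […] (300 uM solution added) for 30 min at 37C. Intracellular cAMP was measured by HTRF after 30 min lysis at room temperature.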
TRPML1 blocker = human mucolipin-1 channel inhibition | 0.02% of 390,000 active | Q9GZU1 | activity change, negative = inhibition, % (concentration not given with the values) | TRPML1-inducible cells, Ca2+ dye fluorescence, FDSS; stronger effect = lower value; inhibition of EC80 agonist-evoked calcium signal; in the data active means activity change below about -50%; inconclusive means about -30% to -50%; inactive means above about -30%;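 also: stimulus is agonist 54-4 at its EC80 concentration; % is scaled to controls: 0 for no effect and ±100 for the full control effect; compound concentration not given in the record; the text of the record puts the active cut at -80%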
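TRPML1-DL cells, Tet-induced overnight (~16 h, 37 °C) at 1,500 cells/well, were loaded with Ca8 no-wash dye plus quencher for 45-90 min at room temperature. Compounds were pinned during FDSS kinetic reading; agonist 54-4 at EC80 (4 uM final) then added.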
Sfp PPTase inh = inhibitors of Bacillus subtilis Sfp phosphopantetheinyl transferase; Q9F4F7; Biochemical Sfp PPTase activity, qHTS; Potency, µM, for the others: max response, negative = inhibition, usual class: inhibitors; 3.5% of 310,000 active; AID 1490; active = well fitted inhibition curve with a large enough effect; inconclusive = small, poorly fitted or top-dose-only effect, or another doubt; inactive = no such curve, though single readings can be large or run the other way;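 also: the enzyme is Sfp with the accession as filed and its product quenches rhodamine fluorescence; potency is read from the fitted curve at half-maximal effect; 0% = enzyme reaction without inhibitor and -100% = no enzyme wells; top concentration of the series not given in the record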
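With Hepes-Na pH 7.6 buffer containing 10 mM MgCl2, Sfp (15 nM) modified BHQ-2-YbbR (12.5 uM) using rhodamine-CoA (5 uM). Two reads 30 minutes apart at 525/598 nm yielded each well's rate.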
ClpP mod = qHTS Assay for Activators of ClpP; purified B. subtilis ClpP, FRET peptide cleavage, 20 min; Potency, µM (highest dose often 57.5 µM), for inactives: at the top dose activity change, negative = active; 1.9% of 340,000 active; active = well fitted falling curve with a large enough effect; inconclusive = small, poorly fitted or top-dose-only effect; inactive = no such curve, though single readings can be large or run the other way; also: potency is read from the fitted curve at half-maximal effect; the source files actives as falling curves though it sought activators and does not explain the sign; nearly all actives have a fitted effect of over 65% in size; many hits overshoot -100%
Target sequence (P80244 whole entry, looked up): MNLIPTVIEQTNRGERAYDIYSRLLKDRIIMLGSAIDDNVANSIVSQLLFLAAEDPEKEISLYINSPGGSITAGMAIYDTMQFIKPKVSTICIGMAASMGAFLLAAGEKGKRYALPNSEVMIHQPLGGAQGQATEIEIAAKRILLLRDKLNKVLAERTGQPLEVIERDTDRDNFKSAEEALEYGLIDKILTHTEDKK
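Purified B. subtilis ClpP, 10 microg/mL final in Tris/HCl pH8 with KCl, BSA, glycerol and Tween-20, cleaved an Abz/nitrotyrosine-quenched decapeptide. Fluorescence (ex 320, em 430) was read at 0 and 20 min at room temperature. Delta was normalized to 5.8 microM ADEP and DMSO/no-enzyme controls.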
Menin MLL FP FL = menin-MLL binding inhibition, fluorescein peptide; 290,000 tested, under 10 active; AID 1766; FP activity change, % at 61.4 µM; Fluorescence polarization, fluorescein-MLL peptide displacement from menin; inconclusive = falling polarisation curve, or a change in total fluorescence; inactive = total fluorescence flat and polarisation flat or rising; no compound was filed as active; the % refers to the polarisation; negative = inhibition;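 also: % of control where 0% means no effect; inhibitors lower the polarisation; unlabelled MLL peptide was the positive control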
Starred values were filed as active, the others as inactive; ? = inconclusive; . = no result given; & = joins results of further samples; [ ] = dose if it differs, or a comment.

SMILES	TRPV1 PAM	gsp ag	gsp antagonist	TRPML1 blocker	Sfp PPTase inh	ClpP mod	Menin MLL FP FL
O=C(c1ccc(O)cc1)c1ccc(C(=O)c2ccc(O)cc2)cc1	-21&4	-2%	?	-13	11%&-5%	-3.3%	1.9&0.6
O=C(CN1N=C(C(F)(F)F)CC1(O)c1ccc([N+](=O)[O-])cc1)c1ccccc1 (centres undefined)	-2	-51%[inhibitor]	-9%	13	10%	3.3%	-2.5
COC(=O)C1CCN(C(=O)C2CC(=O)N(c3ccc(C)c(Cl)c3)C2)CC1 (centres undefined)	.	-17%[15.4 µM]	10%	-8	.	.	.
COc1ccc(CNC(=O)CN(CC2CCCO2)C(=O)CNS(=O)(=O)c2ccccc2)cc1 (centres undefined)	15	0%	8%	42	3%	-1.6%	-0.4
COc1ccccc1CC(=O)N1CCN(c2ccccn2)CC1	2	3%	7%	-2	-6%	22µM*	-1.5
COc1ccccc1CNc1nc(S(=O)(=O)c2ccccc2)c(Cl)s1	1	-8%[15.4 µM]	-11%	-27	-22%	-1.5%	3.1
COc1cc(Cl)c(CNC[C@H]2O[C@@H](n3cnc4c(N)ncnc43)[C@H](O)[C@@H]2O)c(Cl)c1O	.	.	4%	21	.	0.0%	.
C=CCOc1ccccc1CN1CCN(CCc2ccccc2)C(CCO)C1 (centres undefined)	-3	-4%[15.4 µM]	10%	-5	10%	0.6%	4.3
COC(=O)CSc1nnc(-c2cnccn2)n1C	23	-55%[inhibitor]	10%	-10	18%	-3.7%	-1.1
Cc1cc(C)n(CCN(C)C(=O)C2CCC(=O)N(CCN3CCOCC3)C2)n1 (centres undefined)	1	-1%	7%	4	10%	-1.0%	.
COc1ccccc1N(CC(=O)NC1CCCCC1C)S(=O)(=O)c1cccs1 (centres undefined)	.	6%[15.4 µM]	-22%	-3	.	0.3%	.
CC(C)c1cc(-c2cc(C(=O)NCc3ccccc3)on2)nc(NCC2CC2)n1	8	.	-3%	-10	15%	32µM*	-3.1
Cc1ccccc1CNC(=O)c1ccc(CSCc2ccccc2)cc1	-8	-11%	-9%	-8	12%	-25%	-2.4
CCOC(=O)Cn1cnc2c(nnn2-c2cccc(OC)c2)c1=O	10	-13%	-3%	21	16%	-2.5%	-10
CC1(C)C2CCC(C2)C1(C)NC(=O)CNCC1CCCCC1 (centres undefined)	-12	?	6%	-6	-7%	.	-0.2
COc1cccc(OCc2cc(C(=O)N3CCN(C4CCCCC4)C(=O)C3)no2)c1	-14	-5%	-15%	5	7%	.	0.0
O=C(N/N=C/c1cccc2ccccc12)C(=O)N1CCCC1	-13	?	-13%	-11	4%	.	-1.4
Cc1ccc(-c2nn(-c3ccccc3)cc2/C=N/n2c(-c3cccs3)n[nH]c2=S)cc1	-8	-5%[15.4 µM]	?	-2	3%	.	2.0
NC(=O)C1(N2CCCCC2)CCN(S(=O)(=O)c2ccccc2)CC1	.	?	18%	-4	.	-1.2%	.
O=C(c1ccncc1)N1CCN(S(=O)(=O)c2cccc(C(F)(F)F)c2)CC1	11	4%	4%	-3	.	0.6%	.
O=C(CCS(=O)(=O)c1ccc(F)cc1)Nc1nnc(-c2cccs2)o1	2	?	-9%	-6	.	?	.
CC(C)n1cc(NC(=O)COc2ccccc2Cl)cn1	-26	10%	8%	-10	21%	.	-0.5
COc1ccc(CCNC(=O)C(=O)NCc2cccs2)cc1OC	9	-26%	14%	-3	0%	0.8%	2.9
CC(=O)Nc1ccc(NC(=O)CSc2nc(N)c(NC(=O)c3ccco3)c(=O)[nH]2)cc1	-5	-5%[15.4 µM]	8%	-1	-3%	-0.5%	.

A second format for some results above.
Sequence of screens: TRPV1 PAM, gsp ag, gsp antagonist, TRPML1 blocker, Sfp PPTase inh, ClpP mod, Menin MLL FP FL
CC1(C)C2CCC(C2)C1(C)NC(=O)CNCC1CCCCC1 (centres undefined)
    -12, ?, 6%, -6, -7%, ., -0.2
COc1cccc(OCc2cc(C(=O)N3CCN(C4CCCCC4)C(=O)C3)no2)c1
    -14, -5%, -15%, 5, 7%, ., 0.0

Following part:
SMILES	TRPV1 PAM	gsp ag	gsp antagonist	TRPML1 blocker	Sfp PPTase inh	ClpP mod	Menin MLL FP FL
COc1ccc2[nH]c(C(=O)O)c(NC(=O)c3ccccc3[N+](=O)[O-])c2c1	17	6%[15.4 µM]	3%	-8	2%	.	-2.6
Cc1sc(N)nc1-c1ccc2c(c1)OCCO2	17	5%	4%	7	79µM*	-0.1%	2.2
COc1ccc(C)cc1NC(=O)CSc1nnc2ccc(-c3ccccn3)nn12	14	12%[15.4 µM]	4%	0	.	.	.
O=C(NC1CCCCC1)C(c1ccc(F)cc1)N(Cc1ccco1)C(=O)c1csnn1 (centres undefined)	-14	12%[15.4 µM]	.	0	-17%	.	1.7
CCCN(CC(=O)Nc1ccc(F)c(F)c1F)C(=O)Cc1ccc(S(=O)(=O)N2CCOCC2)s1	-8	-8%	-13%	-2	.	-2.0%	.
COc1ccc(-c2cn(Cc3ccc(C(=O)c4ccccc4)cc3)nn2)cc1	7	.	1%	31	17%	-4.6%&-1.3%	-3.4
COc1ccc(CNC(=O)CSc2ncnc3ccccc23)cc1OC	5	21%	-1%	3	-4%	1.1%	4.4
COc1ccccc1/C=C1/C(=O)N(c2ccc([N+](=O)[O-])cc2)N=C1C	29	-35%	-2%	.	18%	-0.7%	-3.6
COc1ccc(C(=O)C2CCCN(Cc3cccn3-c3nccs3)C2)cc1F (centres undefined)	2	-47%[inhibitor]	11%	15	7%	-0.3%	-7.6
CC1CCN(C(=O)CN2C(=O)C(=O)N(C)C2=O)c2ccccc2S1 (centres undefined)	-9	-4%	3%	-3	.	1.0%	.
C/C(=C\C(=O)c1ccccc1)Nc1ccc2c(c1)OCO2	17	-57%	-10%	27	?	-2.0%	1.5
CC1CCN(C(=O)COC(=O)C2CCN(S(=O)(=O)c3c(Cl)cccc3Cl)CC2)CC1	-19	-10%	-4%	0	.	?	.
O=C(CC1C(=O)NCCN1Cc1c(F)cccc1Cl)NCCCn1ccnc1 (centres undefined)	11	1%	7%	4	17%	.	-5.7
CN(CCC#N)C(=O)COC(=O)c1c2c(nc3ccccc13)/C(=C/c1ccco1)CC2	2	5%	0%	-7	-75%	-4.2%	?
COc1ccc(C2NCCn3cccc32)cc1 (centres undefined)	15	5%	12%	-6	1%	-4.4%	4.6
[O-]C1=N[N+](=C(c2ccccc2)c2ccccc2)C1	.	-31%[inhibitor]	10%	-1	.	1.3%	.
N#Cc1cccc(NC(=O)Cn2cnc(S(=O)(=O)N3CCOCC3)c2)c1	?	-48%[inhibitor]	2%	-25	8%	0.5%	.
CN(C[C@@H](CC1CCCCC1)N(C[C@H](Cc1ccccc1)N(CCc1ccccc1)N=O)N=O)N=O	3	14%	-4%	-5	12%	-2.6%	0.0
O=C1OC[C@@H]2CCCN2C(=O)[C@H](CC(=O)N(CCO)Cc2ccccc2)C/C=C\CC[C@H]1Cc1ccc(F)cc1	.	-6%	-12%	3	.	0.6%	.
O=C(Nc1ccc(F)cc1)c1cc2cc(Cl)ccc2[nH]1	6	?	-2%	9	8%	-2.4%	-1.1
CN(C1=NS(=O)(=O)N=C(N(C)c2ccccc2)O1)c1ccccc1	.	?	.	-4	.	0.2%	.
CCCCc1ccc(C2C3=C(CC(C)(C)CC3=O)NC3=C2C(=O)c2ccccc23)cc1 (centres undefined)	-5	-43%[inhibitor]	-5%	16	-11%	-1.0%	-2.4
CC[C@H](C)[C@H](NC(N)=O)C(=O)NNC(=O)c1ccc(COc2cccc3cccnc23)cc1	7	-1%	5%	4	-9%	.	1.9
Cc1cccc(N2CCN(C(=O)CN3C(=O)NC4(CCCCCC4)C3=O)CC2)c1C	1	-4%[15.4 µM]	5%	8	.	.	.
COc1cc(C(=O)N=c2sc3c(C)ccc(OC)c3n2C)cc(OC)c1OC	5	?	15%	8	5%	?	3.7
COc1ccc(-c2csc3ncnc(N4CCN(S(=O)(=O)c5ccc(C)cc5)CC4)c23)cc1	10	3%[15.4 µM]	?	27	.	.	.
Cn1c(N)c(C#N)c(C#N)c1-c1ccccc1	-1	10%	-18%	23	-3%	-30%	1.5
Cc1c(N2C(=O)C(C)SC23C(=O)Nc2ccccc23)c(=O)n(-c2ccccc2)n1C (centres undefined)	-7	-24%	4%	-8	-1%	-0.7%	-1.9
CSc1ncccc1C(=O)N(C)CC(=O)Nc1cccc(F)c1	-1	17%	2%	1	-2%	-2.4%	.
O=C(COc1cccc(-n2cnnn2)c1)Nc1ccc([N+](=O)[O-])cc1	-1	14%	-11%	0	4%	.	-0.2
O=C(CNC(=O)c1ccccc1)NCC(=O)OCc1ccccc1Cl	2	-8%[15.4 µM]	11%	0	20%	.	-1.1
Cc1ccc(OCC(=O)N(Cc2ccccc2)c2ccccn2)cc1	0	2%	2%	-7	6%	1.6%	1.9
COc1cccc2cc(C(=O)N(Cc3ccccc3)CC3CCCO3)c(=O)oc12 (centres undefined)	1	12%	-22%	0	-9%	-4.9%	1.7
CCC1([N+](=O)[O-])COC(c2ccc(C)cc2)OC1 (centres undefined)	.	-18%	9%	2	.	.	.
CCOC(=O)COc1ccccc1/C=N\NC(=O)c1cc2c(ccc3ccccc32)o1	25	0%[15.4 µM]	-17%	-10	-8%	28µM*	.
CN(C)Cc1cc(C(F)(F)F)ccc1C(O)(c1ccccc1)c1ccccc1	.	9%	1%	0	.	-1.8%	.
CCOc1cc2c(cc1OCC)CN(CC(=O)Nc1ccccc1C(=O)NC1CC1)CC2	-9	-15%	-10%	-12	.	-7.1%	.
Clc1ccccc1C1CC(c2ccccc2)=Nc2ccccc2N1 (centres undefined)	2	0%[15.4 µM]	-28%	22	-18%	.	-2.2
O=C(CSc1n[nH]c(=O)[nH]c1=O)NCC1CCCCC1	0	-2%	17%	18	18%	-1.3%	3.6
O=C(O)C1Nc2c(cccc2C(F)(F)F)C2C=CCC12 (centres undefined)	8	.	.	.	50µM*	.	?
COc1cccc(NC(=O)CCc2c(C)nn(-c3ccc(N4CCOCC4)nn3)c2C)c1	6	-13%	-9%	1	9%	0.4%	2.1
O=C(N/N=C/c1ccc[nH]1)c1c[nH]c2ccccc12	-3	-36%[inhibitor]	-4%	16	5%	-9.1%	-3.0
